rRNA inh HTS: reduced GFP signal of wild-type E. coli, primary screen, bacterial rRNA inhibitor project, GFP/RFP fluorescence, OD600, single point | E. coli WT GFP vs humanized-ribosome RFP mutants, 24 h; hits give low values; DMSO median 0, no signal -100 | 350,000 tested, 1.6% active | GFP signal change (wild-type ribosome), % (test concentration not listed) | AID 720706, 2013;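 active means significant combined selectivity score with lowered wild-type GFP, culture density cut under 30%, mutant RFP and density less affected; inactive means any of these conditions unmet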; further: one replicate is shown; some compounds called inactive have numbers as strong as hits
AF4-AF9 inh: inhibitors of AF4 peptide binding to AF9, primary screen, biochemical, AlphaScreen, biotin-AF4 peptide, FLAG-AF9, single point; Protein AF-9 (Homo sapiens), P42568; inhibition, % at 10 µM; 350,000 tested, 0.47% active;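 active means every replicate reaching a set inhibition limit, whatever the replicate mean, cut at about 25% in these data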;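 further: 0% = plate neutral control median and 100% = total signal loss; the record names both 10 and 1 µM as test concentration; the first replicate is given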
Target sequence (P42568 whole entry, looked up): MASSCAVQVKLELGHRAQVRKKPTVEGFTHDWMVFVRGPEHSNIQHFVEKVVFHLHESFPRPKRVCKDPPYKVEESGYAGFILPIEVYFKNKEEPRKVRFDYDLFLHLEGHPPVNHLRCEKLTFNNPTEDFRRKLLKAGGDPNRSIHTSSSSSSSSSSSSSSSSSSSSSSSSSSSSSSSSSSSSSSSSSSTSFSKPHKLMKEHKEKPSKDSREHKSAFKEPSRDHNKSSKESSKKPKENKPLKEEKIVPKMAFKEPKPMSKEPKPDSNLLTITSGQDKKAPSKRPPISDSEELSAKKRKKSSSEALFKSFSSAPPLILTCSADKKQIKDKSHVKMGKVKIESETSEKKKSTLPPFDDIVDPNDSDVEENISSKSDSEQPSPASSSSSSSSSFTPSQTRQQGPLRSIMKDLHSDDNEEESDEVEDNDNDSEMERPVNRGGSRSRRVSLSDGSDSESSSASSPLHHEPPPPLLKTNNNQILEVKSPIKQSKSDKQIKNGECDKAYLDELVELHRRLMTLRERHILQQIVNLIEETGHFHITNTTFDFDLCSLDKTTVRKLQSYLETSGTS
rRNA inh HTS OD600: recorded beside rRNA inh HTS, whose call it bears; OD600 change, %; measured here: OD600 growth;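 optical density of the mix in the first replicate; 0 = DMSO median and -100 = no signal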
rRNA inh HTS RFP: second read-out of rRNA inh HTS, no call of its own (marks repeat the call); RFP signal change, %; measured here: RFP humanized mutant strains;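 first replicate; 0 = DMSO median and -100 = no signal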
Numbers without * were called inactive; & = joins results of further samples. A portion of the library (hit frequency here may not be typical).

SMILES | rRNA inh HTS | rRNA inh HTS OD600 | rRNA inh HTS RFP | AF4-AF9 inh
COc1ccc(NC(=O)Nc2ccc3c(c2)C(=O)N([C@@H](C)CO)C[C@@H](C)[C@H](CN(C)C(=O)Nc2ccc(F)cc2)OCCCC[C@H](C)O3)cc1 | 0 | 3 | -2.0 | -0.3
Cc1noc(C)c1S(=O)(=O)Nc1ccc2c(c1)CC(=O)N([C@@H](C)CO)C[C@H](C)[C@H](CN(C)Cc1ccc(C(=O)Nc3ccccc3N)cc1)O2 | 1 | 15 | -0.8 | 0.1
CCNC(=O)c1cc2c(c(-c3cccc(-c4cc5ccccc5o4)c3)n1)[C@@H](CCO)N(C(=O)NC(C)C)C2 | 4 | 18 | 1.9 | -2.7
CO[C@H]1CN(C)C(=O)c2ccc(NC(C)=O)cc2OC[C@H](C)N(C(=O)c2cccnc2)C[C@H]1C | 2 | 6 | -0.7 | 1.3
O=C(C[C@H]1C[C@H]2c3cc(NC(=O)c4ccc5c(c4)OCO5)ccc3O[C@H]2[C@H](CO)O1)NCc1ccc(Oc2ccccc2)cc1 | 0 | -7 | 0.4 | 1.9
Cc1ccccc1CNC(=O)c1csc([C@H]2C[C@H](O)[C@@H](CO)O2)n1 | 15 | 16 | 1.1 | -1.9
C[C@@H]1CN([C@@H](C)CO)C(=O)c2ccccc2-c2ccccc2CO[C@H]1CN(C)C(=O)N[C@H](C)c1ccccc1 | 0 | 3 | -8.2 | -4.8
CCOC(=O)[C@]12CCCC=C1N(CCc1ccc(OC)c(OC)c1)C(=O)[C@H](CC(=O)NCCc1ccccc1OC)C2 | -2 | -1 | 5.8 | 2.1
O=C(C[C@H]1CC[C@H]2[C@@H](COC[C@@H](O)CN2C(=O)c2ccc(F)cc2)O1)NCCCN1CCOCC1 | 0 | 1 | -1.0 | -23
COc1ccc(NC(=O)N(C)C[C@@H]2OCCCC[C@@H](C)Oc3ccc(NS(=O)(=O)c4ccc(C)cc4)cc3C(=O)N([C@H](C)CO)C[C@@H]2C)cc1 | -1 | -3 | -2.5 | 0.9
O=c1[nH]c(=O)c2ccccc2o1 | 1 | 4 | -0.1 | -3.6
COc1ccc(NC(=O)N(C)C[C@H]2Oc3ccc(NC(=O)Nc4ccc5c(c4)OCO5)cc3C(=O)N([C@@H](C)CO)C[C@@H]2C)cc1 | 7 | -1 | -2.4 | -1.4

Four consecutive compounds from above:
SMILES | rRNA inh HTS | rRNA inh HTS OD600 | rRNA inh HTS RFP | AF4-AF9 inh
Cc1ccccc1CNC(=O)c1csc([C@H]2C[C@H](O)[C@@H](CO)O2)n1 | 15 | 16 | 1.1 | -1.9
C[C@@H]1CN([C@@H](C)CO)C(=O)c2ccccc2-c2ccccc2CO[C@H]1CN(C)C(=O)N[C@H](C)c1ccccc1 | 0 | 3 | -8.2 | -4.8
CCOC(=O)[C@]12CCCC=C1N(CCc1ccc(OC)c(OC)c1)C(=O)[C@H](CC(=O)NCCc1ccccc1OC)C2 | -2 | -1 | 5.8 | 2.1
O=C(C[C@H]1CC[C@H]2[C@@H](COC[C@@H](O)CN2C(=O)c2ccc(F)cc2)O1)NCCCN1CCOCC1 | 0 | 1 | -1.0 | -23

Following part.
SMILES | rRNA inh HTS | rRNA inh HTS OD600 | rRNA inh HTS RFP | AF4-AF9 inh
C[C@@H]1CN([C@H](C)CO)C(=O)c2cc(NC(=O)NC3CCCCC3)ccc2O[C@H]1CN(C)S(=O)(=O)c1cn(C)cn1 | -2 | 2 | 0.5 | -0.5
C[C@@H]1CCCCO[C@@H](CN(C)S(=O)(=O)c2ccc(Cl)cc2)[C@H](C)CN([C@@H](C)CO)C(=O)c2cc(NC(=O)C3CCCCC3)ccc2O1 | 2 | 5 | -4.0 | -4.7
C[C@@H]1CN([C@H](C)CO)C(=O)CCCn2nncc2CO[C@@H]1CN(C)S(=O)(=O)c1ccc(-n2cccn2)cc1 | 1&-2 | -5&-1 | -1.7&1.2 | -0.1&4.0
C[C@H](CO)N1C[C@H](C)[C@H](CN(C)S(C)(=O)=O)OCCCC[C@H](C)Oc2ccc(NC(=O)NC3CCCCC3)cc2C1=O | 1 | 3 | 0.9 | -1.9
CC(=O)N(C)C[C@@H]1Oc2cc(-c3cccc(F)c3)ccc2S(=O)(=O)N([C@@H](C)CO)C[C@H]1C | -8 | -14 | -1.1 | -1.3
C[C@@H]1CN([C@H](C)CO)C(=O)c2cccc(NS(=O)(=O)c3cccs3)c2O[C@@H]1CN(C)C(=O)Nc1ccc2c(c1)OCO2 | -2 | -3 | 1.4 | 0.3
C[C@H]1CN([C@@H](C)CO)C(=O)Cc2cc(N(C)C)ccc2O[C@H]1CN(C)Cc1ccncc1 | -4 | -10 | -2.2 | -2.5
Cc1ccc(S(=O)(=O)Nc2ccc3c(c2)C(=O)N([C@H](C)CO)C[C@H](C)[C@@H](CN(C)Cc2ccc4c(c2)OCO4)OCCCC[C@@H](C)O3)cc1 | 2 | -18 | 4.4 | -1.2
C[C@H]1CN([C@@H](C)CO)C(=O)c2cc(NS(=O)(=O)c3ccc(F)cc3)ccc2O[C@@H]1CN(C)Cc1ccc(Cl)c(Cl)c1 | -4 | -15 | 6.5 | -4.8
N#Cc1cccc(-c2ccc([C@H]3[C@H]4CN(C(=O)Nc5cccc(F)c5)CCCCN4[C@H]3CO)cc2)c1 | -8 | -3 | 1.1 | -0.2
CC(C)NC(=O)Nc1ccc2c(c1)C(=O)N([C@@H](C)CO)C[C@@H](C)[C@H](CN(C)C(=O)CCC(F)(F)F)OCCCC[C@@H](C)O2 | -3 | 8 | -1.8 | -0.3
COc1ccc(NC(=O)Nc2ccc3c(c2)C(=O)N([C@@H](C)CO)C[C@H](C)[C@@H](CN(C)C(=O)Nc2cccc4ccccc24)OCCCC[C@@H](C)O3)cc1 | 0 | 4 | 0.7 | 0.0

In a second layout: 2 of the compounds above
Molecule,rRNA inh HTS,rRNA inh HTS OD600,rRNA inh HTS RFP,AF4-AF9 inh
C[C@H]1CN([C@@H](C)CO)C(=O)Cc2cc(N(C)C)ccc2O[C@H]1CN(C)Cc1ccncc1,-4,-10,-2.2,-2.5
C[C@@H]1CCCCO[C@@H](CN(C)S(=O)(=O)c2ccc(Cl)cc2)[C@H](C)CN([C@@H](C)CO)C(=O)c2cc(NC(=O)C3CCCCC3)ccc2O1,2,5,-4.0,-4.7

Continuation.
SMILES | rRNA inh HTS | rRNA inh HTS OD600 | rRNA inh HTS RFP | AF4-AF9 inh
O=C(NCc1ccccn1)[C@@H]1[C@@H](CO)[C@@H]2Cn3c(ccc(/C=C/c4ccccc4)c3=O)[C@H]1N2CC1CC1 | -6 | -13 | 1.1 | -8.1
C[C@@H]1CCCCO[C@@H](CN(C)C(=O)Nc2ccc(F)cc2)[C@@H](C)CN([C@H](C)CO)C(=O)c2cc(NC(=O)CCCCCC(=O)Nc3ccccc3N)ccc2O1 | 6 | 9 | 0.4 | -6.0
COC(=O)c1cc2c(c3c4cc(F)ccc4n(S(=O)(=O)c4ccccc4)c13)C(=O)N(Cc1ccccc1)C2 | 1 | 0 | 29 | -11
CCCN1C[C@@H](C)[C@@H](OC)CN(C)C(=O)c2cc(NC(=O)c3cnccn3)ccc2OC[C@H]1C | 2 | -4 | 0.3 | 0.8
COc1cccc(CNC(=O)[C@@H]2CCCN2C(=O)[C@@H]2CCCN2C(=O)c2cccs2)c1 | 1 | 3 | 2.1 | -5.1
CC=Cc1ccc2n(c1=O)C[C@@H]1[C@@H](CO)[C@H](C(=O)N3CCOCC3)N(Cc3ccccc3OC)[C@H]21 (mixture of isomers) | 3 | 10 | -3.1 | 1.1
O=S(=O)(N[C@@H]1CC[C@@H](CCn2cc(Cc3ccccc3)nn2)O[C@@H]1CO)c1ccccc1F | -4 | -7 | 2.4 | 1.2
C[C@@H]1CN([C@@H](C)CO)S(=O)(=O)c2ccc(-c3cccc(C#N)c3)cc2O[C@@H]1CN(C)C(=O)c1cccnc1 | 4 | 3 | -0.2 | -0.5
C[C@@H]1CN([C@@H](C)CO)C(=O)c2cc(NC(=O)Cc3cn(C)c4ccccc34)ccc2O[C@H]1CN(C)S(=O)(=O)c1ccccc1 | -6 | -6 | 1.4 | -1.1
Cc1noc(C)c1S(=O)(=O)N(C)C[C@@H]1Oc2ccc(NC(=O)Nc3ccc4c(c3)OCO4)cc2C(=O)N([C@@H](C)CO)C[C@@H]1C | -2 | 4 | 1.2 | 8.4
C[C@H]1CN([C@@H](C)CO)C(=O)c2cc(NC(=O)Nc3ccc(C(F)(F)F)cc3)ccc2O[C@@H]1CN(C)Cc1ccccc1 | 1 | 8 | 1.2 | 3.0
Cc1noc(C)c1S(=O)(=O)N(C)C[C@H]1OCc2ccccc2-c2ccccc2C(=O)N([C@@H](C)CO)C[C@H]1C | 1 | 5 | -1.7 | -0.9
CO[C@@H]1CN(C)C(=O)c2ccc(NC(=O)Nc3ccccc3F)cc2OC[C@@H](C)N(S(=O)(=O)CC(F)(F)F)C[C@H]1C | -2 | -2 | 8.1 | 4.9
Cc1cc2nc(C3CCCCC3)c(Cc3ccccc3)n2c(C)c1Br | 8 | 14 | -0.6 | 0.6
C[C@H](CO)N1C[C@H](C)[C@H](CN(C)Cc2ccncc2)Oc2ccc(NC(=O)C3CCCCC3)cc2CC1=O | -5 | 0 | 1.6 | -4.2
COc1ccc2c3c(n(C)c2c1)[C@@H](CO)N(C(=O)C1CCOCC1)CC31CCN(C(=O)Nc2cccc(F)c2)CC1 | -3 | -10 | -0.8 | 6.0
O=C(C[C@H]1C=C[C@@H](NC(=O)Nc2ccc(F)cc2)[C@@H](CO)O1)NCc1cccc(F)c1 | -3 | -4 | -0.8 | -0.3
COC(=O)[C@H]1[C@H](CO)[C@H]2Cn3c(cccc3=O)[C@H]2N1C(=O)C1CCCC1 | 3 | 3 | -2.1 | -2.3
Cc1cccc(-c2ccc([C@@H]3[C@@H](CO)N4CCCCN(S(=O)(=O)c5cccc(C)c5)C[C@H]34)cc2)c1 | -29 | -35 | 18 | 1.6
CC(=O)N1CC2(C1)[C@@H](c1ccc(-c3ccc(C#N)cc3)cc1)[C@@H](CO)N2C(=O)C1CC1 | -2 | -3 | -0.8 | -0.2
COc1ccccc1NC(=O)N(C)C[C@@H]1Oc2ncc(Br)cc2C(=O)N([C@H](C)CO)C[C@H]1C | 0 | 0 | -2.5 | -0.9
Cc1cc2c(SCC(=O)Nc3ccccc3O)ncnc2s1 | -3 | -6 | 2.0 | 0.7
CNC[C@@H]1OCCCC[C@H](C)Oc2ccc(NC(=O)NC3CCCCC3)cc2C(=O)N([C@@H](C)CO)C[C@@H]1C | 6 | 4 | -1.5 | -2.2
COCC(=O)N1[C@@H]2c3cccc(=O)n3C[C@@H]2[C@@H](CO)[C@@H]1C(=O)NCc1ccccc1F | 2 | 3 | 2.4 | -1.3
C[C@H](CO)N1C[C@H](C)[C@@H](CN(C)C(=O)c2cccnc2)Oc2cc(/C=C/c3ccccc3)ccc2S1(=O)=O | -7 | -23 | -2.4 | 10
C[C@@H]1CN([C@H](C)CO)C(=O)c2cc(NC(=O)Nc3ccc4c(c3)OCO4)ccc2O[C@@H]1CN(C)S(=O)(=O)c1ccc(F)cc1 | -3 | -12 | 0.4 | 1.7
CNC[C@H]1Oc2ccc(NC(=O)NC(C)C)cc2CC(=O)N([C@@H](C)CO)C[C@@H]1C | 5 | 7 | -0.8 | -12
COc1ccccc1-c1ccc2c(c1)O[C@H](CN(C)C(=O)Nc1cccc(F)c1)[C@@H](C)CN([C@H](C)CO)S2(=O)=O | -3 | -10 | -0.7 | 0.5
C[C@@H]1CN([C@H](C)CO)C(=O)c2cc(NS(=O)(=O)c3ccc(Cl)cc3)ccc2O[C@@H]1CN(C)Cc1ccc(C(=O)O)cc1 | -1 | -2 | 2.4 | -2.5
C[C@@H]1CN([C@H](C)CO)C(=O)c2cc(NS(C)(=O)=O)ccc2O[C@@H]1CN(C)Cc1ccncc1 | 2 | -2 | 1.0 | -0.1

3 structures out of the list, sorted by length of the SMILES, high to low:
SMILES | rRNA inh HTS | rRNA inh HTS OD600 | rRNA inh HTS RFP | AF4-AF9 inh
C[C@@H]1CN([C@H](C)CO)C(=O)c2cc(NC(=O)Nc3ccc4c(c3)OCO4)ccc2O[C@@H]1CN(C)S(=O)(=O)c1ccc(F)cc1 | -3 | -12 | 0.4 | 1.7
C[C@H](CO)N1C[C@H](C)[C@@H](CN(C)C(=O)c2cccnc2)Oc2cc(/C=C/c3ccccc3)ccc2S1(=O)=O | -7 | -23 | -2.4 | 10
CNC[C@H]1Oc2ccc(NC(=O)NC(C)C)cc2CC(=O)N([C@@H](C)CO)C[C@@H]1C | 5 | 7 | -0.8 | -12

Assay outcomes as filed in PubChem BioAssay.
